Beta2AR agonist: agonists of human beta-2 adrenergic receptor inducing internalization. response, % (no concentration beside the values). 0.43% of 340,000 active. AID 504454. Am2.2-beta2AR cells, FAP receptor internalization, flow cytometry; reference of the scale not given here. P07550;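 active = response above a set limit, near 3 SD of response in nonfluorescent compounds, cut at about 42% in these data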;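 also: stock transfer was 100 nL into about 11 µL; a reference agonist was the positive control; negative values mostly stem from fluorescent compounds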
Beta apoptosis: blocks beta cell apoptosis; INS-1E cytokine-induced death, ATP luminescence, 48 h; percent of positive-control rescue, neutral wells zero; protection from apoptosis, % (test concentration not listed); 0.8% of 300,000 active;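 active = all replicates at 75% or more, or half of them and the mean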;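 also: 0% = cytokine-treated negative control wells and 100% = positive control rescue; higher means more ATP so stronger rescue from cytokine killing; wells of about 40 µL received 100 nL stock; the first replicate is given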
Calb FLC: affects C. albicans growth with fluconazole | C. albicans CaCi-2 (fluconazole-resistant clinical isolate) + fluconazole, Alamar Blue growth, 48 h | growth inhibition, % (concentration not given with the values) | 0.57% of 300,000 active | AID 1979;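 active = most replicates above 75%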;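 also: all wells also contain fluconazole at 8 µg/ml as a sub-toxic cotreatment; 0% = median of DMSO wells and 100% = median of geldanamycin control wells; wells of about 8 µL received 7.5 nL stock; the first replicate is given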
LANA-H2A inh: blocks KSHV LANA binding to histone H2A/H2B. cell-free LANA-H2A/H2B peptide, fluorescence polarization. inhibition, % (concentration not given with the values). 0.6% of 320,000 active. AID 2629; in the data active = inhibition mostly above about 10%, no sharp cut-off; inactive = mostly below about 6.7%;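 also: stock transfer was 7.5 nL into about 10 µL; 0% = median of vehicle wells and 100% = median of positive control wells; one replicate is shown; the record names a cut of 25% in any replicate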
Target sequence (Q9QR71 whole entry, looked up): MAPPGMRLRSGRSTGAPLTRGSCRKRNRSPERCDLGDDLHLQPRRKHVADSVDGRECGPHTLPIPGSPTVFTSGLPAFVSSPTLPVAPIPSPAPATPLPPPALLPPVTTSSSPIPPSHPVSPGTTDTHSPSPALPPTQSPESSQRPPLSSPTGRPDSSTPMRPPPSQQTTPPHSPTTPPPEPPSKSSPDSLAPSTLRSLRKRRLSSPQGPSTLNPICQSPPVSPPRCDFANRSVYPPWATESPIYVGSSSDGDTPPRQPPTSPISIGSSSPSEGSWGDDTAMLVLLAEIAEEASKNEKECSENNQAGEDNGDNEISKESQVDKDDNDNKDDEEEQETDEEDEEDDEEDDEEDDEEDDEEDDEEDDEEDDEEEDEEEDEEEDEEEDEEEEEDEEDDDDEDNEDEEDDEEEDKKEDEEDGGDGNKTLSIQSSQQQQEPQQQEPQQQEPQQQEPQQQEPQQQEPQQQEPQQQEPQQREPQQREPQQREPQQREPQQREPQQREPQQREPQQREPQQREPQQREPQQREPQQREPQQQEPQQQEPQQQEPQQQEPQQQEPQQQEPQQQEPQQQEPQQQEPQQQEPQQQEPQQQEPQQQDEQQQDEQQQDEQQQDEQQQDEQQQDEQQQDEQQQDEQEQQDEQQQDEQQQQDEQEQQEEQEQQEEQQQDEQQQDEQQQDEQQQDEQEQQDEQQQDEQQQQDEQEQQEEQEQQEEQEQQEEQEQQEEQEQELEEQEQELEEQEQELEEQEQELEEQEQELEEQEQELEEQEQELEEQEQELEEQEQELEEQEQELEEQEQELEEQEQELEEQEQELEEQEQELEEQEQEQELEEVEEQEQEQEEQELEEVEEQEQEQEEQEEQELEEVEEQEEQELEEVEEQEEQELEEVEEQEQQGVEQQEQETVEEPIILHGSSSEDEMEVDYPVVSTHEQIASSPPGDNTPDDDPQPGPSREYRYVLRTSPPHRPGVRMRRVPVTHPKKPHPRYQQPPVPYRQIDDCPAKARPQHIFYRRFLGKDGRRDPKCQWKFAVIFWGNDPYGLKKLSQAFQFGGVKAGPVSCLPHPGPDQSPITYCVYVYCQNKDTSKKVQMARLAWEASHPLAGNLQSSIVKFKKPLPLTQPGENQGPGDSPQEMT
Ecoli rRNA inh: inhibits bacterial ribosomal RNA function over humanized ribosomes; GFP signal change (wild-type ribosome), % (concentration not given with the values); 1.6% of 350,000 active; E. coli WT GFP vs humanized-ribosome RFP mutants, fluorescence, 24 h; stronger effect = lower value; DMSO median 0, no signal -100;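 active = significant combined selectivity score with lowered wild-type GFP, culture density cut under 30%, mutant RFP and density less affected; inactive = any of these conditions unmet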; also: one replicate is shown; some compounds called inactive have numbers as strong as hits
ALR H2O2 inh: inhibitors of human sulfhydryl oxidase ALR | purified ALR, DTT oxidation, H2O2 HRP-luminol luminescence | inhibition, % (test concentration not listed) | 3.8% of 290,000 active;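 active = mean and each replicate at 75% or more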;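 also: stock transfer was 7.5 nL into about 7.5 µL; 0% = neutral wells and 100% = wells with inactivated enzyme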
A1 inh: inhibitors of the anti-apoptotic protein A1, read as caspase activation | caspase activation, % (no concentration beside the values) | 0.066% of 330,000 active | AID 2462 | MEF A1-2A-BIM cells, Caspase-Glo 3/7 luminescence, 3 h; percent of clofoctol response, vehicle zero;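 active = over half of replicate activation scores above 10%, or exactly half above 10 with the replicate mean above 10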;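 also: wells of about 30 µL received 50 nL stock; many hits fall short of the cut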
T cruzi repl: blocks replication of Trypanosoma cruzi | T. cruzi beta-gal in NIH3T3, luminescence, 90 h | 1.4% of 300,000 active | inhibition, % (concentration not given with the values);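 active = mean inhibition across valid replicates above about 55%, limit read from the data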;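 also: signal also drops with host cell toxicity which is not excluded here; 0% = plate median of DMSO wells and 100% = zero luminescence signal; higher percent means less beta-gal luminescence so fewer parasites; stock transfer was 50 nL into about 50 µL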
Ecoli rRNA inh OD600: also measured in Ecoli rRNA inh; calls as there; OD600 change, %; measured here: OD600 growth;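 optical density of the mix in the first replicate; 0 = DMSO median and -100 = no signal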
Ecoli rRNA inh RFP: second read-out of Ecoli rRNA inh, no call of its own (marks repeat the call); RFP signal change, %; measured here: RFP humanized mutant strains;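 first replicate; 0 = DMSO median and -100 = no signal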
Starred values were filed as active, the others as inactive.

The opening two records as a preview:
CCCn1nnnc1NCc1cccc(OC)c1 was read as Beta2AR agonist 3, Beta apoptosis 0, Calb FLC -4, LANA-H2A inh -0.9, Ecoli rRNA inh 11, ALR H2O2 inh -2, A1 inh 0.4, T cruzi repl -3, Ecoli rRNA inh OD600 7 and Ecoli rRNA inh RFP -2.1.
O=C(c1ccc(F)cc1)c1ccc(OCC(=O)N2CCOCC2)cc1 was read as Beta2AR agonist -16, Beta apoptosis -2, LANA-H2A inh -1.3, Ecoli rRNA inh 2, ALR H2O2 inh -10, A1 inh 0.5, Ecoli rRNA inh OD600 -6 and Ecoli rRNA inh RFP 1.1.

This part in full, from the first entry:
CCCn1nnnc1NCc1cccc(OC)c1 was read as Beta2AR agonist 3, Beta apoptosis 0, Calb FLC -4, LANA-H2A inh -0.9, Ecoli rRNA inh 11, ALR H2O2 inh -2, A1 inh 0.4, T cruzi repl -3, Ecoli rRNA inh OD600 7 and Ecoli rRNA inh RFP -2.1.
O=C(c1ccc(F)cc1)c1ccc(OCC(=O)N2CCOCC2)cc1 was read as Beta2AR agonist -16, Beta apoptosis -2, LANA-H2A inh -1.3, Ecoli rRNA inh 2, ALR H2O2 inh -10, A1 inh 0.5, Ecoli rRNA inh OD600 -6 and Ecoli rRNA inh RFP 1.1.
Screening COC(=O)c1ccc(CSc2ccc3nnc(-c4ccc(OC)c(OC)c4)n3n2)o1 returned Beta2AR agonist 9, Beta apoptosis 3, Calb FLC 20, LANA-H2A inh 3.8, Ecoli rRNA inh -13, ALR H2O2 inh -4, A1 inh -0.3, T cruzi repl 0, Ecoli rRNA inh OD600 -14 and Ecoli rRNA inh RFP -1.9.
For Cc1cccc(N2CCN(C(=O)c3nn(C)c4c3CS(=O)(=O)c3ccccc3-4)CC2)c1C the results were Beta2AR agonist 7, Beta apoptosis 0, Calb FLC -4, LANA-H2A inh 0.5, Ecoli rRNA inh 3, ALR H2O2 inh 1, A1 inh 0.9, T cruzi repl 14, Ecoli rRNA inh OD600 -8 and Ecoli rRNA inh RFP 3.0.
For O=C(O)c1ccc(NNC(=S)Nc2cc(C(F)(F)F)ccc2Cl)cc1 the results were Beta2AR agonist 2, Beta apoptosis -15, Calb FLC 34, LANA-H2A inh -0.5, Ecoli rRNA inh -2, ALR H2O2 inh 54, A1 inh 0.5, T cruzi repl -6, Ecoli rRNA inh OD600 3 and Ecoli rRNA inh RFP 0.4.
For CC(Sc1nnc(C2CCCCC2)n1N)C(=O)NCc1ccc2c(c1)OCO2 (configuration not stated) the results were Beta2AR agonist -5, Beta apoptosis -3, Calb FLC -9, LANA-H2A inh -1.1, ALR H2O2 inh 6, A1 inh 0.6 and T cruzi repl 1.
For O=C(NCc1ccccc1)C(c1cccnc1)N(C(=O)c1ccccn1)c1ccc(F)cc1 (configuration not stated) the results were Beta2AR agonist 14, Beta apoptosis -4, Calb FLC -1, LANA-H2A inh -12, Ecoli rRNA inh 9, ALR H2O2 inh 1, A1 inh 0.9, T cruzi repl 7, Ecoli rRNA inh OD600 9 and Ecoli rRNA inh RFP 1.8.
Cc1c(C)n(CCO)c2ncnc(Nc3ccc(F)cc3)c12 was read as Beta2AR agonist -8, Beta apoptosis 1, Calb FLC 5, LANA-H2A inh 3.9, Ecoli rRNA inh -2, ALR H2O2 inh 9, A1 inh 1.6, T cruzi repl -8, Ecoli rRNA inh OD600 2 and Ecoli rRNA inh RFP -0.1.
`Cc1cc(C)c(NC(=O)CNC(=O)COC(=O)/C=C/c2cccs2)c(C)c1` gave Beta2AR agonist -6, Beta apoptosis -1, Calb FLC -1, LANA-H2A inh 0.2, Ecoli rRNA inh 10, ALR H2O2 inh 0, A1 inh 0.2, T cruzi repl -6, Ecoli rRNA inh OD600 9 and Ecoli rRNA inh RFP 1.2.
For Fc1ccc(NC(=S)Nc2ccc(Cl)cc2)cc1 the results were Beta2AR agonist -1, Beta apoptosis 0, Calb FLC -1, LANA-H2A inh -3.7, Ecoli rRNA inh -20, ALR H2O2 inh 2, A1 inh -0.7, T cruzi repl -49, Ecoli rRNA inh OD600 -24 and Ecoli rRNA inh RFP 0.6.
NS(=O)(=O)c1ccc(CCNC(=O)CNC(=O)c2ccccc2Br)cc1 was read as Beta2AR agonist 26, Beta apoptosis -9, Calb FLC 2, LANA-H2A inh 2.2, Ecoli rRNA inh 4, ALR H2O2 inh -1, A1 inh 0.2, T cruzi repl -14, Ecoli rRNA inh OD600 7 and Ecoli rRNA inh RFP 0.2.
Nc1cc(C(=O)OCC(=O)NCc2ccc(F)cc2)ccc1Cl was read as Beta2AR agonist 2, Beta apoptosis 3, Calb FLC -9, LANA-H2A inh 1.5, Ecoli rRNA inh 10, ALR H2O2 inh 6, A1 inh -0.1, T cruzi repl 4, Ecoli rRNA inh OD600 9 and Ecoli rRNA inh RFP 0.0.
COCC(=O)N(CCc1ccc(OC)c(OC)c1)Cc1cc2cc(C)ccc2nc1Cl was read as Beta2AR agonist 3, Beta apoptosis -1, Calb FLC -6, LANA-H2A inh 1.9, Ecoli rRNA inh -1, ALR H2O2 inh -1, A1 inh -2.0, T cruzi repl -10, Ecoli rRNA inh OD600 -10 and Ecoli rRNA inh RFP 2.5.
`O=C(c1cnccn1)N1CCc2ccccc2C1` gave Beta2AR agonist -3, Beta apoptosis -5, Calb FLC -2, LANA-H2A inh 3.9, Ecoli rRNA inh 10, ALR H2O2 inh -1, A1 inh 0.2, T cruzi repl -3, Ecoli rRNA inh OD600 3 and Ecoli rRNA inh RFP 1.7.
For Cc1ccc(NC(=S)N(Cc2cccc(Br)c2)CC2CCC(C(=O)O)CC2)cc1 (configuration not stated) the results were Beta2AR agonist 0, Beta apoptosis 6, Calb FLC 20, LANA-H2A inh -1.8, Ecoli rRNA inh -14, ALR H2O2 inh -4, A1 inh 0.6, T cruzi repl -2, Ecoli rRNA inh OD600 -23 and Ecoli rRNA inh RFP -8.8.
`CCN(Cc1ccccc1)C(=O)CSc1ccccc1C(=O)O` gave Beta2AR agonist 4, Calb FLC 17, LANA-H2A inh -5.2, Ecoli rRNA inh 9, ALR H2O2 inh -22, A1 inh 2.2, T cruzi repl -5, Ecoli rRNA inh OD600 1 and Ecoli rRNA inh RFP -1.1.
Screening CC(=O)N(Cc1ccco1)C1(C(=O)NC2CCCCC2)CCCCC1 returned Beta2AR agonist -14, Beta apoptosis -4, Calb FLC 26, LANA-H2A inh -5.0, ALR H2O2 inh -10, A1 inh 0.0 and T cruzi repl 0.
CCN(CC)S(=O)(=O)c1cccc(NC(=O)c2ccc(Br)cc2)c1 was read as Beta2AR agonist -8, Beta apoptosis -16, Calb FLC 1, LANA-H2A inh -6.5, Ecoli rRNA inh 0, ALR H2O2 inh -1, A1 inh -0.2, T cruzi repl 17, Ecoli rRNA inh OD600 10 and Ecoli rRNA inh RFP 1.8.
For O=C(CCOc1ccccc1)Nc1nnc(-c2ccc3c(c2)OCCO3)o1 the results were Beta2AR agonist -1, Beta apoptosis -3, Calb FLC 19, LANA-H2A inh -1.3, Ecoli rRNA inh 18, A1 inh 0.1, T cruzi repl -9, Ecoli rRNA inh OD600 16 and Ecoli rRNA inh RFP 3.0.
Cc1cc(C)n(C(=O)c2ccncc2)n1 was read as Beta apoptosis -2, Calb FLC 5, LANA-H2A inh -2.8, ALR H2O2 inh 0, A1 inh -0.1 and T cruzi repl -12.
`Cc1ccc(/C=N/NC(=O)CNC(=O)c2cccc([N+](=O)[O-])c2C)o1` gave Beta2AR agonist 2, Beta apoptosis -5, Calb FLC -1, LANA-H2A inh 7.3, Ecoli rRNA inh 14, A1 inh 0.9, T cruzi repl -13, Ecoli rRNA inh OD600 12 and Ecoli rRNA inh RFP -0.3.
Cn1cccc1C1C(C#N)=C(N)OC2=C1C(=O)CC(C)(C)C2 (configuration not stated) was read as Beta2AR agonist 5, Beta apoptosis -6, Calb FLC 1, LANA-H2A inh 3.0, Ecoli rRNA inh -1, ALR H2O2 inh -36, A1 inh -0.2, T cruzi repl -3, Ecoli rRNA inh OD600 7 and Ecoli rRNA inh RFP 1.5.
Screening COc1ccc(C(=O)CN2C(=O)NC3(CCc4ccccc43)C2=O)c(OC)c1 (configuration not stated) returned Beta2AR agonist -7, Beta apoptosis -4, Calb FLC -5, LANA-H2A inh -4.1, Ecoli rRNA inh 3, ALR H2O2 inh -3, A1 inh -0.1, T cruzi repl 2, Ecoli rRNA inh OD600 -3 and Ecoli rRNA inh RFP 3.7.
`CCN(CC)CCn1c(=N)n(CCOc2ccccc2)c2ccccc21` gave Beta2AR agonist 12, Beta apoptosis -1, Calb FLC -4, LANA-H2A inh 5.3, Ecoli rRNA inh 1, ALR H2O2 inh 0, A1 inh 0.1, T cruzi repl 69*, Ecoli rRNA inh OD600 3 and Ecoli rRNA inh RFP 5.2.
N#Cc1c(NCCCO)nc(NCc2ccccc2)c2c1CCN(Cc1ccccc1)C2 was read as Beta2AR agonist 4, Beta apoptosis 21, Calb FLC 26, LANA-H2A inh -6.7, ALR H2O2 inh -10, A1 inh 1.6 and T cruzi repl 35.
O=C(O)C(CC1CCCCC1)N1CCS(=O)(=O)CC1 (configuration not stated) was read as Beta2AR agonist 4, Beta apoptosis -2, Calb FLC -5, LANA-H2A inh 0.8, Ecoli rRNA inh 20, ALR H2O2 inh -15, A1 inh 0.7, T cruzi repl 0, Ecoli rRNA inh OD600 14 and Ecoli rRNA inh RFP 0.5.
`O=C(Nc1ccc(NC(=O)c2ccc([N+](=O)[O-])cc2[N+](=O)[O-])cc1)c1ccco1` gave Beta2AR agonist 9, Beta apoptosis 13, Calb FLC 2, LANA-H2A inh 2.4, Ecoli rRNA inh -3, ALR H2O2 inh -2, A1 inh 0.6, T cruzi repl 35, Ecoli rRNA inh OD600 5 and Ecoli rRNA inh RFP -2.5.
`CCC1=C(OC(=O)N(CC)CC)N2C(=O)OC(=NCc3ccccc3)[C@]2(C)[C@H]2C1=CC[C@H]1C(=O)NC(=O)[C@H]12` gave Beta2AR agonist 3, Beta apoptosis 0, Calb FLC 9, LANA-H2A inh -5.4, Ecoli rRNA inh 0, A1 inh 0.3, T cruzi repl -4, Ecoli rRNA inh OD600 -3 and Ecoli rRNA inh RFP -1.6.
For CCc1cccc2c1NC(=O)C21N2CCCC2C(C(=O)c2ccc3ccccc3c2)C12C(=O)Nc1ccccc12 (configuration not stated) the results were Beta2AR agonist 14, Beta apoptosis 10, Calb FLC -8, LANA-H2A inh -5.5, Ecoli rRNA inh 3, ALR H2O2 inh -3, A1 inh 0.1, T cruzi repl -3, Ecoli rRNA inh OD600 -7 and Ecoli rRNA inh RFP -3.5.
`C#CCOCCOCCOCCNc1nc(N2CCN(C(=O)C([C@@H](C)O)n3cc([C@@H](N)CCCCN)nn3)CC2)nc(N2CCN(C(=O)[C@H](CC(N)=O)n3cc(C(N)[C@@H](C)CC)nn3)CC2)n1` (some centres not stated) gave Beta2AR agonist -2, Beta apoptosis -12, LANA-H2A inh -1.1, Ecoli rRNA inh 11, A1 inh -0.3, Ecoli rRNA inh OD600 7 and Ecoli rRNA inh RFP -1.5.
CO/N=C(/CS(=O)(=O)c1ccc(Br)cc1)c1ccc(OC)cc1 was read as Beta2AR agonist -2, Beta apoptosis 5, Calb FLC 12, LANA-H2A inh -8.3, ALR H2O2 inh -39, A1 inh 0.0 and T cruzi repl 2.

This is a subset; rates above refer to the full screens.
